Source: PubChem BioAssay
Vaccinia inh: blocks a specific stage of Vaccinia orthopoxvirus infection, primary screen, cell-based, single point; Vaccinia-infected cells, mCherry/Venus stage reporter fluorescence; hits give low values; some inactives read as strong as hits; activity change (mCherry), % (no concentration beside the values); actives 0.01% (n = 89,000);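 active means mCherry past -33% and 40 or more points under the early reporter, replicates agreeing; inconclusive means past -33% without that gap or agreement; tested in A549 cells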;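 further: scaled between vehicle wells and reference inhibitor wells; 23 nL library stock went into each well; one replicate is shown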
Vaccinia inh Venus: further read-out of Vaccinia inh, marked with its call; activity change (Venus), %; measured here: Venus reporter, other viral stage;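 negative = less Venus signal; first of two replicates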
* marks the source's active call; other numbers are inactive results; ? = inconclusive; . = not tested or not shown; & = joins results of further samples. This is a subset (hit frequency here may not be typical).

SMILES	Vaccinia inh	Vaccinia inh Venus
O=C(N[C@@H]1CC[C@H](CCn2cc(-c3ccccn3)nn2)O[C@H]1CO)c1ccc(F)cc1	-13.8	-10.3
C[C@H]1CN([C@@H](C)CO)C(=O)c2cc(C#CC3(O)CCCC3)cnc2O[C@H]1CN(C)C(=O)C1CCCCC1	-13.1	-7.7
CN(C)C(=O)C[C@H]1CC[C@@H]2[C@H](COC[C@@H](O)CN2Cc2nccs2)O1	14.5	11.9
C/C=C/c1cnc2c(c1)C(=O)N([C@@H](C)CO)C[C@@H](C)[C@H](CN(C)C(=O)C1CCOCC1)O2	18.7	10.0
CC(=O)NC[C@H]1[C@H](c2ccc(-c3ccccc3)cc2)[C@H](CO)N1C(=O)C1CC1	3.7	11.9
O=C(C[C@@H]1CC[C@@H]2[C@H](COC[C@@H](O)CN2S(=O)(=O)c2ccccc2)O1)Nc1ccccc1	-6.1	2.4
CN1C(=O)c2cc(NC(=O)Nc3ccccc3Cl)ccc2OC[C@H]2O[C@H](CC(=O)NCCCN3CCOCC3)CC[C@@H]21	11.3	-2.4
O=C(C[C@H]1CC[C@@H]2[C@H](COC[C@@H](O)CN2Cc2cccc(Cl)c2)O1)N1CCOCC1	-0.6	-6.3
O=C(C[C@@H]1C[C@H]2c3cc(NC(=O)c4cccnc4)ccc3O[C@H]2[C@H](CO)O1)NCC1CC1	12.8	0.6
O=C([C@H]1[C@H](CO)[C@H]2Cn3c(ccc(C4=CCCC4)c3=O)[C@@H]1N2C(=O)c1cccnc1)N1CCOCC1	0.6	9.9
Cc1ccc(S(=O)(=O)NCC[C@H]2CC[C@H](NC(=O)NC(C)C)[C@H](CO)O2)cc1	-5.5	-0.7
O=C(C1CC1)N1CC(=O)N2[C@H](CO)[C@H](c3ccc(-c4ccccc4F)cc3)[C@@H]2C1	-13.7	-6.2
C[C@H]1CN([C@@H](C)CO)C(=O)Cc2cc(NC(=O)C3CCCCC3)ccc2O[C@H]1CN(C)Cc1ccc(-c2ccccc2)cc1	?	.
O=C(C[C@H]1CC[C@@H]2[C@H](COC[C@@H](O)CN2Cc2nccs2)O1)N1CCC(Cc2ccccc2)CC1	-15.6	-10.7
Cc1ccccc1S(=O)(=O)NCC[C@H]1CC[C@@H](NC(=O)C2CCOCC2)[C@H](CO)O1	1.5	2.3
N#Cc1ccc(-c2ccc3c(c2)[C@@H]2[C@@H](CCN2C(=O)C2CCC2)[C@@H](CO)N3)cc1	-31.3	-5.8
C[C@H]1CN([C@@H](C)CO)S(=O)(=O)c2ccc(-c3cncnc3)cc2O[C@@H]1CN(C)Cc1cccnc1	28.3	17.1
Cc1noc(C)c1NC(=O)N(C)C[C@@H]1Oc2ccc(NC(=O)c3ccncc3)cc2CC(=O)N([C@@H](C)CO)C[C@@H]1C	9.3	0.8
C[C@H](NC(=O)[C@H]1N[C@H]2c3ccc(-c4cncnc4)c(=O)n3C[C@H]2[C@@H]1CO)c1ccccc1	-0.4	3.2
O=C(C1CCCCC1)N1CC2(C1)[C@H](c1ccccc1)[C@H](CO)N2Cc1ccc(Cl)cc1	?	.
Cc1noc(C)c1NC(=O)Nc1cccc2c1O[C@@H](CN(C)Cc1ccc(Oc3ccccc3)cc1)[C@H](C)CN([C@H](C)CO)C2=O	-22.8	-18.0
C[C@@H]1CN([C@@H](C)CO)S(=O)(=O)c2ccc(Br)cc2O[C@@H]1CN(C)C(=O)C1CC1	12.5&-4.4	4.7&0.4
COc1ccc(-c2ccc3c(c2)[C@@H]2[C@@H](CCN2S(=O)(=O)C2=NC(C)C=N2)[C@@H](CO)N3C)cc1 (some centres undefined)	-5.7	1.0
CCC(=O)Nc1ccc2c(c1)C(=O)N(C)C[C@H](OC)[C@@H](C)CN(C(=O)CC1CC1)[C@H](C)CO2	4.9	3.2
C[C@@H]1CN([C@H](C)CO)S(=O)(=O)c2ccc(C#CC3CCCC3)cc2O[C@@H]1CN(C)C(=O)C1CC1	?	.
COc1ccc(NC(=O)N2C[C@H](O)COC[C@H]3O[C@H](CC(=O)N4CCCCC4)CC[C@@H]32)cc1	22.1	11.1
CCCNC(=O)N1[C@@H](C#N)[C@@H](c2ccc(-c3ccccc3F)cc2)[C@@H]1CO	-17.0	-9.7
C[C@H](CO)N1C[C@H](C)[C@H](CN(C)Cc2ccncc2)Oc2cc(Br)ccc2S1(=O)=O	-3.7	-7.7
COc1ccc(NC(=O)N(C)C[C@@H]2Oc3ccc(NS(=O)(=O)c4ccc(Cl)cc4)cc3C(=O)N([C@H](C)CO)C[C@H]2C)cc1	9.9	9.5
CCCNC(=O)N1CC2(C1)[C@@H](c1ccccc1)[C@@H](CO)N2C(=O)C1CCC1	22.7	16.3
C[C@H](CO)N1C[C@H](C)[C@H](CN(C)Cc2ccc3c(c2)OCO3)Oc2ccc(NC(=O)Nc3ccc4c(c3)OCO4)cc2C1=O	-1.7	4.8
COc1ccc(CN(C)C[C@H]2OCCCC[C@H](C)Oc3ccc(NC(=O)C4CCCCC4)cc3C(=O)N([C@@H](C)CO)C[C@@H]2C)cc1	?	.
COc1ccc(S(=O)(=O)N(C)C[C@@H]2Oc3ccc(NC(=O)Cc4ccccc4)cc3CC(=O)N([C@H](C)CO)C[C@H]2C)cc1	19.0	3.7
COc1cccc(CNC(=O)C[C@H]2C=C[C@H](NC(=O)C3CC3)[C@H](CO)O2)c1	1.0	4.3
CC=Cc1ccc2n(c1=O)C[C@@H]1[C@@H](CO)[C@H](C(=O)NCc3ccccc3F)N(CC)[C@H]21 (mixture of isomers)	-3.8	5.3
C[C@H]1CCCCO[C@@H](CN(C)CC2CCCCC2)[C@@H](C)CN([C@@H](C)CO)C(=O)c2cc(NC(=O)C3CCCCC3)ccc2O1	?	.
CC(C)C#Cc1ccc2c(c1)O[C@@H](CN(C)Cc1cncnc1)[C@@H](C)CN([C@@H](C)CO)S2(=O)=O	3.0	0.4
C[C@@H]1CN([C@H](C)CO)C(=O)c2cc(NS(=O)(=O)c3ccc(Cl)cc3)ccc2O[C@@H](C)CCCCO[C@@H]1CN(C)Cc1ccccc1	?	.
CC=Cc1ccc2n(c1=O)C[C@@H]1[C@@H](CO)[C@H](C(=O)Nc3ccc(-c4ccccc4)cc3)N(C)[C@H]21 (mixture of isomers)	-17.0	-7.3
C[C@@H]1CN([C@H](C)CO)C(=O)c2cc(C#Cc3ccccc3F)cnc2O[C@H]1CN(C)C(=O)C1CCCCC1	?	.
C[C@H](CO)N1C[C@H](C)[C@H](CN(C)C(=O)C2CCC2)Oc2ncc(C3=CCCC3)cc2C1=O	4.1	5.6
COCC#Cc1ccc2c(c1)O[C@@H](CN(C)Cc1ccncc1)[C@@H](C)CN([C@@H](C)CO)S2(=O)=O	10.7	3.1
O=C(C[C@@H]1C=C[C@H](NC(=O)CN2CCOCC2)[C@@H](CO)O1)NC1CCCCC1	2.2	9.0
O=C(C[C@@H]1CC[C@H]2[C@@H](COC[C@H](O)CN2S(=O)(=O)c2ccccc2F)O1)NCc1ccccc1F	10.9	-0.3
C[C@H](CO)N1C[C@H](C)[C@H](CN(C)C(=O)CCC(F)(F)F)OCc2ccccc2-c2c(n(C)c3ccccc23)C1=O	8.1	4.7
C[C@H]1CN([C@@H](C)CO)C(=O)Cc2cc(NC(=O)CCC(F)(F)F)ccc2O[C@@H]1CN(C)Cc1ccc2c(c1)OCO2	-17.4	-24.7
O=C(C[C@H]1C[C@H]2c3cc(NC(=O)NC4CCCCC4)ccc3O[C@H]2[C@H](CO)O1)NCc1ccccn1	0.6	-1.6
C[C@H](CO)N1C[C@H](C)[C@@H](CN(C)S(=O)(=O)c2ccc(F)cc2)Oc2c(NC(=O)Nc3ccc4c(c3)OCO4)cccc2C1=O	0.1	2.2
COc1ccc(S(=O)(=O)N(C)C[C@H]2OCCCC[C@H](C)Oc3ccc(NS(C)(=O)=O)cc3C(=O)N([C@H](C)CO)C[C@@H]2C)cc1	18.4	11.3
CO[C@H]1CN(C)C(=O)c2cc(NC(=O)Nc3ccccc3)ccc2OC[C@@H](C)N(CC2CC2)C[C@@H]1C	-16.8	-8.9
COc1ccccc1S(=O)(=O)N[C@@H]1CC[C@H](CC(=O)N2CCOCC2)O[C@@H]1CO	11.5	6.8
O=C(Nc1ccc(F)cc1)N1C[C@H]2[C@@H](c3ccccc31)[C@@H](CO)N2C(=O)Cc1ccccn1	1.0	4.9
CCC(=O)Nc1ccc2c(c1)C(=O)N(C)[C@@H]1CC[C@H](CC(=O)NCCCN(C)C)O[C@@H]1CO2	-2.2	2.9
CCCC#Cc1ccc2c(c1)O[C@H](CN(C)CC1CC1)[C@H](C)CN([C@@H](C)CO)S2(=O)=O	-26.2	-17.1
C[C@H](CO)N1C[C@H](C)[C@H](CN(C)S(C)(=O)=O)Oc2ncc(C#CCN(C)C)cc2C1=O	13.1&32.2	5.5&15.8
C=CC1CN2CCC1C[C@@H]2CO (some centres undefined)	9.8	5.9
O=C(C[C@@H]1CC[C@@H]2[C@H](COC[C@H](O)CN2Cc2ccc(C(F)(F)F)cc2)O1)NCCc1ccccc1	-30.7	-26.5
CC(C)CC#Cc1ccc([C@@H]2[C@@H](CO)N3C(=O)CN(C(=O)c4cccc(F)c4)C[C@@H]23)cc1	-27.0	-17.9
COc1ccc(CNC(=O)N(C)C[C@H]2OCc3ccccc3-c3c(n(C)c4ccccc34)C(=O)N([C@H](C)CO)C[C@H]2C)cc1	?	.
CC(=O)N1[C@H](CO)[C@H](c2ccc(-c3cccnc3)cc2)[C@H]1CNC(=O)C1CC1	21.0	9.0

In a second layout: results already given
Every second line gives: Vaccinia inh | Vaccinia inh Venus
CCCC#Cc1ccc2c(c1)O[C@H](CN(C)CC1CC1)[C@H](C)CN([C@@H](C)CO)S2(=O)=O
  -26.2 | -17.1
COc1ccc(S(=O)(=O)N(C)C[C@H]2OCCCC[C@H](C)Oc3ccc(NS(C)(=O)=O)cc3C(=O)N([C@H](C)CO)C[C@@H]2C)cc1
  18.4 | 11.3
COc1ccccc1S(=O)(=O)N[C@@H]1CC[C@H](CC(=O)N2CCOCC2)O[C@@H]1CO
  11.5 | 6.8
CC(C)CC#Cc1ccc([C@@H]2[C@@H](CO)N3C(=O)CN(C(=O)c4cccc(F)c4)C[C@@H]23)cc1
  -27.0 | -17.9
O=C(Nc1ccc(F)cc1)N1C[C@H]2[C@@H](c3ccccc31)[C@@H](CO)N2C(=O)Cc1ccccn1
  1.0 | 4.9

Continuation.
SMILES	Vaccinia inh	Vaccinia inh Venus
Cc1ccccc1-c1ccc([C@@H]2[C@H]3CN(C(=O)Cc4ccccn4)CCCCN3[C@H]2CO)cc1	-2.9	-16.6
O=C(C[C@H]1C[C@H]2c3cc(NC(=O)NC4CCCCC4)ccc3O[C@H]2[C@@H](CO)O1)NCC(F)(F)F	11.7	7.8
CO[C@H]1CN(C)C(=O)c2cc(NC(=O)c3cc(C)on3)ccc2OC[C@@H](C)N(C(=O)C2CC2)C[C@H]1C	-10.7	-1.8
C/C=C/c1ccc([C@H]2[C@@H](CO)N(C(=O)C3CC3)[C@H]2CN(C)S(C)(=O)=O)cc1	9.3	12.3
CNC[C@@H]1Oc2ccc(NC(=O)c3ccncc3)cc2C(=O)N([C@H](C)CO)C[C@H]1C	3.0	0.8
COc1cccc(S(=O)(=O)N2CCCCN3[C@H](CO)[C@H](c4ccc(C#CCC(C)C)cc4)[C@@H]3C2)c1	?	.
CCCC(=O)Nc1ccc2c(c1)C(=O)N(C)C[C@@H](OC)[C@@H](C)CN(CCc1ccccc1)[C@H](C)CO2	-6.3	-4.3
CC(C)(O)C#Cc1ccc([C@@H]2[C@@H](CO)N3CCCCN(C(=O)c4cccnc4)C[C@@H]23)cc1	18.7	3.1
C[C@@H]1CN([C@@H](C)CO)C(=O)Cc2cc(NC(=O)C3CC3)ccc2O[C@@H]1CN(C)Cc1ccncc1	10.2	3.7
CN(C)CC(=O)Nc1ccc2c(c1)[C@H]1C[C@H](CC(=O)NCc3ccncc3)O[C@H](CO)[C@H]1O2	4.2	-0.1
COc1ccc(S(=O)(=O)N2C[C@@H](O)COC[C@H]3O[C@@H](CC(=O)NCc4ccc(Cl)c(Cl)c4)CC[C@@H]32)cc1	?	.
O=C(C1CCOCC1)N1CC(=O)N2[C@H](CO)[C@@H](c3ccc(Br)cc3)[C@@H]2C1	12.8	14.3
COCC(=O)N(C)C[C@@H]1Oc2ncc(C#Cc3ccc(OC)cc3)cc2C(=O)N([C@@H](C)CO)C[C@@H]1C	26.4	16.2
NCC[C@@H]1CC[C@@H](NC(=O)Cc2ccncc2)[C@@H](CO)O1	5.8	5.1
C/C=C/c1ccc([C@@H]2[C@@H](CO)N(C(=O)c3ccccc3)[C@@H]2CNC(C)C)cc1	-27.6	-13.0
C[C@@H]1CCCCO[C@@H](CN(C)Cc2ccc3c(c2)OCO3)[C@H](C)CN([C@H](C)CO)C(=O)c2cc(NC(=O)Nc3ccc(C(F)(F)F)cc3)ccc2O1	?	.
COC(=O)C(CC#Cc1ccc2c(c1)[C@]1(C(=O)N2)[C@H](C(=O)NC[C@H](O)c2ccccc2)[C@H]2C(=O)O[C@H](c3ccccc3)[C@H](c3ccccc3)N2[C@@H]1c1ccccc1OCCO)C(=O)OC	5.3	6.1
C[C@@H]1CN([C@@H](C)CO)C(=O)c2cccc(N(C)C)c2O[C@H]1CN(C)C(=O)Nc1ccc(F)cc1	2.1	-3.8
CO[C@H](CN(C)S(=O)(=O)c1ccc(Cl)cc1)[C@@H](C)CN(C(=O)Nc1ccccc1F)[C@@H](C)CO	-9.2	-6.4
C[C@H]1CN([C@@H](C)CO)S(=O)(=O)c2ccc(-c3cncnc3)cc2O[C@@H]1CN(C)C(=O)Cc1ccccc1	12.4	10.0
C/C=C/c1ccc([C@@H]2[C@@H](C#N)N(C(=O)CN3CCOCC3)[C@H]2CO)cc1	7.3	6.2
